From PubChem
FEN1 inhibitor = human FEN1 inhibition; P39748; Recombinant FEN1 flap cleavage, fluorescence, 15 min; Potency, µM (doses to about 114 µM), without a hit: top-dose activity change, negative = inhibition, usual class: inhibitors; 390,000 compounds, 0.35% hits; AID 588795; further: nearly all actives have a fitted effect of over 65% in size
Target sequence (P39748 whole entry, looked up): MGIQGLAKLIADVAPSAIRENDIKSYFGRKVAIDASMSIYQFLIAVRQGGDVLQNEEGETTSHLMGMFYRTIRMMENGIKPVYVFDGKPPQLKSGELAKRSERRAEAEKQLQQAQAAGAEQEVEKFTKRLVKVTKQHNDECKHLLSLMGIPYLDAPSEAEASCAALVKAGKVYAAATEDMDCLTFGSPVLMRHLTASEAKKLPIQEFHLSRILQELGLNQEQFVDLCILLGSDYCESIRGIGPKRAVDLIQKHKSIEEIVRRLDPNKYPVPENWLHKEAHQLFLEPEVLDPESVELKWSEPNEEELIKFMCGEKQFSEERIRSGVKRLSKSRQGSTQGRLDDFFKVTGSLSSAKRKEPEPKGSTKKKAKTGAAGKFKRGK
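Potency values derive from four-parameter Hill fits of normalized qHTS data. The reaction used 10 nM FEN1 preincubated 15 min at room temperature with compound, then 50 nM DNA substrate, read at 0 and 15 min.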
N370S GC mod = inhibits or activates N370S mutant glucocerebrosidase; P04062; N370S GC spleen homogenate, 4MU-glucoside fluorescence; 330,000 compounds, 0.092% hits; Potency, µM (series often up to 59.4 µM), inactives show at the top dose activity change, negative = inhibition, hits mostly inhibitors;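 further: 0% = full enzyme activity and -100% = no enzyme basal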
The depositor's hits bear a star; ? = inconclusive; . = not tested or not shown; & = joins results of further samples; [ ] = remark or other dose. The call rests on the fitted dose curve; in most records, active means well fitted curve in the direction sought with a large enough effect; inconclusive means small, poorly fitted or top-dose-only effect, or another doubt; inactive means no such curve, though single readings can be large; an effect the other way counts as inactive or inconclusive. Unless noted, on the % scale 0 is the no-effect control and ±100 the full control effect; potency means the concentration at half of the fitted maximal effect. The list is partial, and most or all hits are left out here.

Each structure is followed by: FEN1 inhibitor	N370S GC mod
CCc1nnc(NC(=O)Nc2ccc(OC)cc2)s1
    7%	-5%
COc1ccc(C(=O)NCc2nnc(SCC(=O)N3CCCCC3)o2)cc1
    3%	-8%
CCN(CC)c1ccc(C(=S)NC2CCCCC2)cc1
    -9%	?
CC(C(=O)NC(C)(C)C)N(C(=O)CS(=O)CC(=O)Nc1ccc(F)cc1)c1ccccc1F (configuration not stated)
    1%	9%
COc1ccc(OCc2cc(C(=O)N3CCOCC3)no2)c(Cl)c1
    18%	-3%
Cc1sc2nc(SCC(=O)O)[nH]c(=O)c2c1C
    -3%	7%
CC(C)(CNC(=O)c1ccc(Br)o1)N1CCOCC1
    -4%	7%
Cc1ccc(NC(=O)c2c(F)cccc2Cl)cc1S(=O)(=O)N1CCOCC1
    13%	.
Cc1ccc(NC(=O)CNS(=O)(=O)c2ccc(F)cc2)cc1C
    -11%	8%
COc1ccc(OC)c(S(=O)(=O)Nc2cc3c4c(c2)C(C)C(=O)N4CCC3)c1 (configuration not stated)
    -1%	-1%
Cc1ccc(CNC(=O)c2nnn(Cc3ccc(F)cc3)c2N)cc1
    2%	.
COc1ccccc1/C=C(/C(=O)OCC(N)=O)c1ccccc1
    -10%	6%
COc1ccc(NC(=O)C(CCS(C)(=O)=O)N2C(=O)c3ccccc3C2=O)cc1 (configuration not stated)
    11%	.
COC(=O)/C(=C/c1cccc([N+](=O)[O-])c1)NC(=O)c1ccc(OC)cc1
    -13%	9%
CN(CC(=O)NCc1ccccc1)S(=O)(=O)c1cnc[nH]1
    -6%	0%
CCc1ccc(OCC(O)CN2CCN(c3ccccc3)CC2)cc1 (configuration not stated)
    -42%&-16%	-11%
COCCn1c(SCc2ccc(F)cc2)nc2ccccc2c1=O
    -27%	-3%
O=C(c1cc(COc2c(F)cccc2F)on1)N1CCc2ccccc2C1
    -19%	-6%
COCCCNCCCCOc1ccc(Br)cc1Cl
    10%	-21%
COc1cc(NC(=O)c2ccco2)c(OC)cc1NC(=O)CSc1nnc(-c2cccs2)n1C
    -14%	-3%
CCNc1nc(NCc2ccccc2)nc(SCC(=O)Nc2ccccc2)n1
    -18%	28%
CC1CN(C(=O)c2ccc(N3CCCCC3)c([N+](=O)[O-])c2)CC(C)O1 (configuration not stated)
    5%	-5%
O=C(COc1ccc(-c2nnco2)cc1)Nc1ccc(C(F)(F)F)cc1
    11%	2%
COC(=O)CC1SC(=O)NC1=Nc1ccc(C)cc1 (configuration not stated)
    -12%	-18%
Cc1ccc(NC(=O)C2CC(O)CN2C(=O)OCc2ccccc2)c(C)c1 (configuration not stated)
    -1%	-7%
CC[C@H](C)C(=O)O[C@H]1C[C@@H](C)C=C2C=C[C@H](C)[C@H](CC[C@@H]3C[C@@H](O)CC(=O)O3)[C@H]21
    -6%&-6%	-22%&-30%&-16%
COC(=O)c1cc2n3ccccc3c(C)c(-c3ccccc3)c-2c1C(=O)OC
    -23%	12%
N#CC1=C(N)Oc2n[nH]c(-c3ccncc3)c2C1c1ccsc1 (configuration not stated)
    0%	-2%
COc1cc2c(cc1OC)C(C(=O)NCc1ccco1)C1c3ccccc3CCN1C2=O (configuration not stated)
    -12%	8%
Cc1cc(/C=C(\C#N)c2nc3ccccc3[nH]2)c(C)n1C
    -1%	5%

(continued)
Each structure is followed by: FEN1 inhibitor	N370S GC mod
Oc1c(Cl)cc(Cl)c(Cl)c1Cc1c(O)c(Cl)cc(Cl)c1Cl
    ?	16%&16%&1%
CN(C)c1ccc(NC(=O)CSc2nc3c(c(=O)[nH]2)CCCC3)cc1
    -8%	5%
O=C(CCSCc1cccc(Cl)c1)NCCC1=CCCCC1
    5%	2%
O=C1CC2C(=O)NCCN2C(=NC(=O)c2ccc(Cl)cc2)N1 (configuration not stated)
    4%	19%
CC1CC(C)CN(C(=O)Cn2nnc(-c3ccccc3)n2)C1 (configuration not stated)
    0%	-4%
Cc1nc2cc(NC(=O)Nc3nccs3)ccc2n1C
    -17%	-11%
NC(=O)C1=C[C@H](c2ccccc2)C[C@H](OCc2ccc(CO)cc2)O1
    -1%	-5%
COc1ccccc1NC(=O)CSc1ccc2nnc(-c3ccncc3)n2n1
    12%	16%
O=C(Nc1ccccc1C(=O)NCCN1CCOCC1)c1ccco1
    -5%	4%
CCC(=O)N(CCC1(C(C)C)CCOC(C)(C)C1)Cc1ccco1 (configuration not stated)
    1%	10%
Cc1ccc(C)c(NC(=O)Cn2cc(S(=O)(=O)N3CCCC3)c(S(=O)(=O)N3CCCC3)c2)c1
    6%	.
O=C(CSc1nnc(-c2cccs2)o1)Nc1cccc(C(F)(F)F)c1
    -8%	.
O=C(Oc1cccnc1)c1cc(S(=O)(=O)N2CCOCC2)ccc1Cl
    -16%	-1%
CN1CCn2c1nc(N1CCCCC1)nc2=O
    -3%	-3%
O=C1CCCN1CN1CCCCC1
    0%	1%
CN1CCN(/N=C/c2ccc(Br)cc2)CC1
    1%	-7%
Cc1ccc(S(=O)(=O)NC(=O)NCCCCNC(=O)NS(=O)(=O)c2ccc(C)cc2)cc1
    3%	3%
CCc1ccc(C2NC(c3ccc(CC)cc3)C([N+](=O)[O-])C(C)(C)C2[N+](=O)[O-])cc1 (configuration not stated)
    -16%	14%
O=C(NCc1csc(-c2ccccc2)n1)c1cc(F)cc2c1OCOC2
    3%	3%
COc1cc(C(CCN2CCCC2)c2c(OC)cc(OC)c3ccc(=O)oc23)cc(OC)c1OC (configuration not stated)
    -2%&-7%	-4%&-13%
Cc1ccc(C(=O)NCC(=O)OCC(=O)NC2CCS(=O)(=O)C2)cc1C (configuration not stated)
    -5%	-6%
Cc1cc(-c2ccc(C)c(S(=O)(=O)Nc3cccc(C#N)c3)c2)on1
    0%	.
Cc1cccc(Cn2c(N3CCN(c4ccccc4)CC3)nc3c2c(=O)n(C)c(=O)n3C)c1
    -2%	5%
CCCOc1ccc(N2C(=O)CC(S/C(N)=N/N=C(\C)c3cccs3)C2=O)cc1 (configuration not stated)
    -1%	24%[12.8 µM]
O=C(Nc1ccccc1F)c1ccn[nH]1
    -1%	14%
Cc1ccc(C)c(NC(=O)c2cc(S(=O)(=O)N3CCCc4ccccc43)ccc2F)c1
    5%	.
N/C(=N\O)c1cccc(CS(=O)(=O)c2ccccn2)c1
    6%	8%
CCOC(=O)c1c(C)n(C)c2ccc(OCC(O)CN(CC)CC)cc12 (configuration not stated)
    -20%	-6%
Cc1cc(C)cc(NC(=O)c2cc(C)nc3ccccc23)c1
    7%	-1%
C=C(C)CSc1nc(N)c2c3c(sc2n1)CCC3
    -2%	9%

Following part:
Each structure is followed by: FEN1 inhibitor	N370S GC mod
Cc1nnc(NC(=O)c2ccc(-c3cccc(C(F)(F)F)c3)o2)s1
    0%	4%
COc1ccc(Cl)cc1-c1nc(SCC(=O)NC2CC2)n[nH]1
    12%	17%
Cc1ccc(NS(=O)(=O)c2cc(C(N)=O)ccc2C)cc1
    5%	-5%
COC(=O)c1c(C)cc(C)n2c1nc1ccccc12
    -2%	2%
COc1ccc(S(N)(=O)=O)cc1C(=O)NCCCN1CCN(c2ccc(C)cc2)CC1
    -1%	0%[12.8 µM]
Cc1ccc(C(=O)N2CCN(S(=O)(=O)c3ccc(C)c([N+](=O)[O-])c3)C2)cc1
    -15%	2%
O=C(Nc1ccc(F)cc1)c1ccc2c(=O)n(CC3CCCO3)c(=S)[nH]c2c1 (configuration not stated)
    20%	-27%
CC(C)(C)C(=O)NCCCc1ccccc1
    -1%	-3%
COc1ccc2[nH]c3c(=O)n(N)c(C)nc3c2c1
    -3%	-3%
Cc1ccc(NC(=O)c2ccc3c(c2)OCCO3)cc1S(=O)(=O)Nc1cccc(Cl)c1
    5%	7%
CC(C)c1ccc(OCC(=O)Nc2cccc(C(=O)Nc3ccccc3C(=O)O)c2)cc1
    3%	0%
Cn1c(=O)c2c(nc(NC(Cc3ccccc3)C(=O)O)n2Cc2ccccc2)n(C)c1=O (configuration not stated)
    8%	-5%
CCOc1ccc(NC(=O)CSc2nnc(C3CC3)n2C2CC2)cc1
    8%	.
COc1ccccc1OCCn1cc(C(=O)O)c2ccccc21
    31%[activator]	13%
Cc1ccc2oc(Nc3nc(C)cc(C)n3)nc2c1
    12%	-7%
Cn1cc(Cl)nc1C(O)c1ccccc1 (configuration not stated)
    -5%	3%
CC[C@]1(c2ccccc2OC)ON(c2ccccc2C(F)(F)F)C1=O
    1%	.
Cc1ccc2c(c1)-c1nc(-c3ccc4c(c3)NC(=O)CO4)cc(-c3ccccc3)c1CO2
    -2%	.
Cc1c(C#N)c2ccccc2n1CC(=O)NCCc1c[nH]c2ccccc12
    -6%	4%
CCOc1ccc(NC(=O)C[n+]2ccc(N(C)C)cc2)cc1
    -2%	12%
Cn1c(=O)c2[nH]c(C3CCCC3)nc2n(C)c1=O
    1%	1%&11%&15%
CCOc1ccccc1NC(=O)C1CCN(S(=O)(=O)c2cccs2)CC1
    0%	.
COc1ccc(S(=O)(=O)c2ccccc2)cc1NS(=O)(=O)c1cccc(C(=O)O)c1
    -8%	.
CCOc1cc(C#N)ccc1OCC(=O)NNC(=O)CC1CCS(=O)(=O)C1 (configuration not stated)
    -7%	-4%
CCOC(=O)Nc1ccc(Cc2ccncc2)cc1
    4%	-6%
O=C(NC1CCCCCCC1)c1cccs1
    1%	-7%
CN(CC(=O)Nc1c(Cl)cccc1Cl)C(=O)CC1Sc2ccccc2NC1=O (configuration not stated)
    6%	3%
Cc1ccc(C(=O)N2CCn3c(C)ccc3C2C)cc1 (configuration not stated)
    -11%	-3%
COc1ccc(/C=C2/SC(=S)N(CCC(=O)N3CCN(C)CC3)C2=O)cc1
    -3%	-5%
Cc1ccc(C(=O)OCC(=O)Nc2ccc3[nH]c(=O)[nH]c3c2)o1
    6%	3%

Later entries.
Each structure is followed by: FEN1 inhibitor	N370S GC mod
C/C(=N\NC(=O)Cn1c(-c2ccccn2)nc2ccccc21)c1ccccc1
    -1%	17%
COc1ccc(-n2cnc3c(cnn3CCC#N)c2=N)cc1
    -2%	4%
CC(C)C(=O)NCCc1nc2ccccc2n1CCCOc1ccc(Cl)cc1
    -8%	2%
CCOc1ccc(-n2c(=O)c3c4c(sc3n(CC(=O)NC(C)CC)c2=O)CCCC4)cc1 (configuration not stated)
    -9%	.
O=C(c1cnn(-c2ccccc2)c1)c1ccc2ccccc2c1O
    -4%	0%
Cc1ccc(OP(=O)(Nc2c(C)n(C)n(-c3ccccc3)c2=O)Oc2ccc(C)cc2)cc1
    18%	23%
COc1ccc(-n2nc(C(=O)Nc3ccccc3OC)c3c4ccccc4n(C)c3c2=O)cc1Cl
    -3%	.
COc1ccccc1NC(=O)C(NC(=O)OC(C)(C)C)C(C)OCc1ccccc1 (configuration not stated)
    -19%	14%
OCC(O)C(O)C(O)C(O)CO (configuration not stated)
    .	-2%&0%
C[C@@H]1C=C(C(=O)N2CCN(Cc3ccc4c(c3)OCO4)CC2)O[C@H](OCCCCO)C1
    -3%	-6%
CC1CCC(C(C)C)C(OC(=O)C[n+]2cc(-c3ccc(Cl)cc3)n3c2CCCCC3)C1 (configuration not stated)
    -1%	-20%
FC(F)(F)c1cnc(N2CCC(=NOCc3ccc(Cl)cc3)CC2)c(Cl)c1
    -12%	18%
CC1CC(C)CN(CC(=O)N2c3ccccc3CCc3ccccc32)C1 (configuration not stated)
    -2%	.
COc1ccc(N(C(=O)Cn2nnc3ccccc32)C(C(=O)NC(C)(C)C)c2ccc(OC)c(O)c2)cc1 (configuration not stated)
    14%	-1%
CC1/C=C/C=C/C=C/C=C/C=C/C=C/C=C/C(OC2OC(C)C(O)C(N)C2O)CC2O[C@@](O)(CC(O)CC(O)C(O)CCC(O)CC(O)CC(=O)OC(C)[C@H](C)C1O)CC(O)C2C(=O)O (some centres not stated)
    .	-17%
COc1ccc(OCCCN2CCCC(C)C2)cc1 (configuration not stated)
    0%	3%
Cc1csc(=O)n1CC(=O)OCC(=O)N(CC(C)C)c1c(N)n(Cc2ccccc2)c(=O)[nH]c1=O
    13%	3%
COc1ccc(N(CC(=O)N2CCN(Cc3ccc4c(c3)OCO4)CC2)S(=O)(=O)c2ccc(F)cc2)cc1
    -21%	-13%
CCOC(=O)c1ccccc1NC(=O)C=C(C)C
    -1%	-11%

Full records from above. Screens in order: FEN1 inhibitor | N370S GC mod
Cc1ccc(OP(=O)(Nc2c(C)n(C)n(-c3ccccc3)c2=O)Oc2ccc(C)cc2)cc1 reads 18% | 23%
C[C@@H]1C=C(C(=O)N2CCN(Cc3ccc4c(c3)OCO4)CC2)O[C@H](OCCCCO)C1 reads -3% | -6%

6 compounds out of the list above, ordered by their value in N370S GC mod, ascending.
structure | N370S GC mod
CC1CCC(C(C)C)C(OC(=O)C[n+]2cc(-c3ccc(Cl)cc3)n3c2CCCCC3)C1 (configuration not stated) | -20%
COc1ccc(N(CC(=O)N2CCN(Cc3ccc4c(c3)OCO4)CC2)S(=O)(=O)c2ccc(F)cc2)cc1 | -13%
COc1ccc(OCCCN2CCCC(C)C2)cc1 (configuration not stated) | 3%
C/C(=N\NC(=O)Cn1c(-c2ccccn2)nc2ccccc21)c1ccccc1 | 17%
FC(F)(F)c1cnc(N2CCC(=NOCc3ccc(Cl)cc3)CC2)c(Cl)c1 | 18%
Cc1ccc(OP(=O)(Nc2c(C)n(C)n(-c3ccccc3)c2=O)Oc2ccc(C)cc2)cc1 | 23%
